Bioassay records as filed in PubChem.
rRNA inh HTS: inhibitors of bacterial rRNA selective over humanized ribosomes; hit rate 1.6% among 350,000; E. coli WT GFP vs humanized-ribosome RFP mutants, fluorescence, 24 h; hits give low values; DMSO median 0, no signal -100; GFP signal change (wild-type ribosome), % (concentration not given with the values);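 active = significant combined selectivity score with lowered wild-type GFP, culture density cut under 30%, mutant RFP and density less affected; inactive = any of these conditions unmet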; also: one replicate is shown; some compounds called inactive have numbers as strong as hits
UCH37 DUB inh: human UCH37 deubiquitinating enzyme inhibition | inhibition, % (test concentration not listed) | Q9Y5K5 | purified proteasome/UCH37, Ub-AMC cleavage fluorescence | hit rate 0.33% among 330,000;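 active = mean of two replicates above 20%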;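 also: 0% = compound-free wells with enzyme and 100% = wells lacking proteasome; stock transfer was 100 nL into about 20 µL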
Target sequence (Q9Y5K5 whole entry, looked up): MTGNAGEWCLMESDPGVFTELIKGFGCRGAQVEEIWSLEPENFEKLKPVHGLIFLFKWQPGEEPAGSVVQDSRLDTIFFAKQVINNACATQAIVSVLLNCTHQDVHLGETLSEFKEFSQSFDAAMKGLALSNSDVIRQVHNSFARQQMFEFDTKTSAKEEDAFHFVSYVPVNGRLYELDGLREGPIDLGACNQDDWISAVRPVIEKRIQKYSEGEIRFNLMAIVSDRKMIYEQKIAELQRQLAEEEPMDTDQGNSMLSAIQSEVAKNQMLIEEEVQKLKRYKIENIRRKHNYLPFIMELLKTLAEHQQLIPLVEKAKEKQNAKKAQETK
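Material: Human UCH37 enzyme supplied as purified proteasome complex | Schedule: 30 min compound-proteasome preincubation then 25 min substrate reaction, room temperature | Detection: AMC fluorescence from Ub-AMC cleavage, excitation 355 nm, emission 460 nm | Benchmarks: Wells without proteasome as full block, compound-free enzyme plus substrate as uninhibited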
Beta apoptosis: blocks beta cell apoptosis; INS-1E cytokine-induced death, ATP luminescence, 48 h; percent of positive-control rescue, neutral wells zero; protection from apoptosis, % (no concentration beside the values); hit rate 0.8% among 300,000;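 active = all replicates at 75% or more, or half of them and the mean; inconclusive = half reach 75% but not the mean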;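 also: 0% = cytokine-treated negative control wells and 100% = positive control rescue; higher means more ATP so stronger rescue from cytokine killing; wells of about 40 µL received 100 nL stock; the first replicate is given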
T cruzi inh: T. cruzi replication inhibition; T. cruzi beta-gal in NIH3T3, luminescence, 90 h; inhibition, % (no concentration beside the values); hit rate 1.4% among 300,000; AID 1885;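 active = mean inhibition across valid replicates above about 55%, limit read from the data; inconclusive = mean below that limit but half or more replicates reach it; inactive = mean below it, under half of replicates reach it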;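 also: signal also drops with host cell toxicity which is not excluded here; 0% = plate median of DMSO wells and 100% = zero luminescence signal; higher percent means less beta-gal luminescence so fewer parasites; stock transfer was 50 nL into about 50 µL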
MLL AF4-AF9 inh: inhibitors of human MLL-AF4/AF9 interaction. P42568. AlphaScreen, biotin-AF4 peptide binding to FLAG-AF9. inhibition, % at 10 µM. hit rate 0.47% among 350,000;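 active = every replicate reaching a set inhibition limit, whatever the replicate mean, cut at about 25% in these data; inconclusive = mean inhibition reaches that limit but some replicates miss it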;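 also: 0% = plate neutral control median and 100% = total signal loss; the record names both 10 and 1 µM as test concentration; the first replicate is given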
Target sequence (P42568 whole entry, looked up): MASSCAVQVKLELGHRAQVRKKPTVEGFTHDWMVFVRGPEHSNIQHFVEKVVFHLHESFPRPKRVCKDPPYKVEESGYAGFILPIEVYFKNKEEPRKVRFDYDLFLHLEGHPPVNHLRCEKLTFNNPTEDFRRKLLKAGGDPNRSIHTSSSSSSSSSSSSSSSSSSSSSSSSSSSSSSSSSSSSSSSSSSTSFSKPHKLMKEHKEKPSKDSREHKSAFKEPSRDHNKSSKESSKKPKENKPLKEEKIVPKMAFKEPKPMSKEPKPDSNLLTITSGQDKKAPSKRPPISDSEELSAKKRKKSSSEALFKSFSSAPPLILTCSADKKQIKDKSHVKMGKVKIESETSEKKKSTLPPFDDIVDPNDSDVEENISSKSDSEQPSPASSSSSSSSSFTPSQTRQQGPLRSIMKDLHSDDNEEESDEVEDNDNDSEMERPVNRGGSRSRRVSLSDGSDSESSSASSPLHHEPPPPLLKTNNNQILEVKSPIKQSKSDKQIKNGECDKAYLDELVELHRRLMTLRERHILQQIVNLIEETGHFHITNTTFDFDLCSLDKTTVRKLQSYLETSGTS
FGF22 binding: FGF22 (human) thermal shift binding | calls only at 9.99 µM | hit rate 1.5% among 340,000 | Q9HCT0 | AID 651658 | recombinant FGF22 thermal shift, SYPRO orange fluorescence; percent of sucrose octasulfate shift, DMSO zero;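 active = melting point raised past a set limit in the mean and every replicate; inconclusive = no clear call; three in four hits are not shown here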
Target sequence (Q9HCT0 whole entry, looked up): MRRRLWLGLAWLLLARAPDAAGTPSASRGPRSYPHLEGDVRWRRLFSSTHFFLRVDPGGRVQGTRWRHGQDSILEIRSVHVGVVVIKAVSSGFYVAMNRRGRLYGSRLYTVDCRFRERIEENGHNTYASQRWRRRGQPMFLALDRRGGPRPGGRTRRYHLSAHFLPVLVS
A1 inh: inhibitors of the anti-apoptotic protein A1, read as caspase activation | hit rate 0.066% among 330,000 | MEF A1-2A-BIM cells, Caspase-Glo 3/7 luminescence, 3 h; percent of clofoctol response, vehicle zero | caspase activation, % (concentration not given with the values) | AID 2462;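 active = over half of replicate activation scores above 10%, or exactly half above 10 with the replicate mean above 10; inconclusive = replicate mean below 10 yet half the replicates above 10; inactive = over half of replicates below 10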;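 also: wells of about 30 µL received 50 nL stock; many hits fall short of the cut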
E coli growth: blocks Escherichia coli growth; OD600, 23 h; hits give low values; OD600 absorbance (test concentration not listed); hit rate 0.21% among 330,000;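 active = OD600 absorbance below the run mean of sample wells minus 3.6 SD, in any replicate, cut at about 0.56 in these data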;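 also: stock transfer was 300 nL into about 60 µL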
rRNA inh HTS OD600: also measured in rRNA inh HTS; calls as there; OD600 change, %; measured here: OD600 growth;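 optical density of the mix in the first replicate; 0 = DMSO median and -100 = no signal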
rRNA inh HTS RFP: further read-out of rRNA inh HTS, marked with its call; RFP signal change, %; measured here: RFP humanized mutant strains;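 first replicate; 0 = DMSO median and -100 = no signal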
* hit, by the source's call; i = inactive; ? = inconclusive; · = no result given. Not all compounds are listed (hit frequency here may not be typical).

SMILES	rRNA inh HTS	rRNA inh HTS OD600	rRNA inh HTS RFP	UCH37 DUB inh	Beta apoptosis	T cruzi inh	MLL AF4-AF9 inh	FGF22 binding	A1 inh	E coli growth
COc1ccc(NC(=S)Nc2ccc(OCc3ccccc3)cc2)c(OC)c1	-10	-3	-1.1	3.3	·	1	-0.2	i	1.0	0.69
CC/C(=N/NC(=O)c1ccccc1)c1ccc(OCCN2CCOCC2)cc1	14	14	14	·	5	7	-48	i	0.3	·
Cc1coc2c(O)cc3c(c12)OC1(N2CCCCC2)C(=O)NCCCC31 (centres undefined)	·	·	·	3.0	1	·	·	·	?	0.67
COc1ccc(C(=O)N(Cc2ccc(N(C)C)cc2)C2CCS(=O)(=O)C2)cc1 (centres undefined)	·	·	·	5.5	0	-6	·	·	0.5	0.68
COc1cccc(C(=O)NCC(C)(C)SCc2ccc(F)cc2)c1	-2	-46	-6.1	5.4	2	-5	-1.3	i	-0.6	0.67
CCN(CC(=O)Nc1c(F)cccc1F)C(=O)c1ccc(S(=O)(=O)N2CCCC2)cc1	1	-2	0.0	-3.4	-9	-5	-7.5	i	0.6	0.7
CC(Sc1nnc(-c2cccnc2)n1-c1ccccc1F)C(=O)N1CCCc2ccccc21 (centres undefined)	-9	-20	6.8	0.7	-3	12	4.7	i	0.2	0.69
Cc1noc(C)c1COC(=O)[C@@H](NC(=O)c1ccccc1Cl)C(C)C	-5	5	-0.8	4.1	·	17	-2.7	i	1.2	0.64
CCCn1c(SCC(=O)O)nc2ccccc21	5	3	-6.2	2.4	0	1	4.6	i	-0.3	0.63
COc1ccc(S(=O)(=O)NCc2cccnc2)cc1C(=O)Nc1ccccc1	-3	3	0.0	-1.0	-8	-2	-0.1	i	-0.6	0.67
CCCCn1c(SCC(=O)Nc2cc(C)on2)nnc1-c1cccnc1	·	·	·	6.3	-5	-5	·	·	1.1	0.7
CNc1nc(Cl)nc(NC(C)(C)C)n1	·	·	·	3.3	-4	-7	·	·	0.7	0.71
COc1ccc(CCn2c(C)cc(C(=O)CSc3nnnn3-c3ccccc3)c2C)cc1	-5	-13	0.6	4.6	1	16	·	·	0.0	0.73
CCCC(c1nnnn1Cc1ccccc1)N1CCN(c2ccccc2OC)CC1 (centres undefined)	·	·	·	1.7	-4	0	·	·	0.3	0.73
COc1cccc(CN(CC(=O)NCc2ccc(F)cc2)C(=O)c2ccco2)c1	-2	4	-0.1	0.3	6	-2	-18	i	0.1	0.66
CC(=O)c1ccc(NC(=O)CNc2cc(S(=O)(=O)N3CCOCC3)ccc2N2CCCC2)cc1	-4	-5	1.2	-0.4	·	·	1.0	i	·	0.68
O=C(CSc1c2c(nc3cc(Cl)ccc13)CCCC2)NCCCN1CCOCC1	-17	-20	-3.9	8.6	-1	7	1.4	i	-0.4	0.64
COc1ccc(/C=C/c2cc(C(F)(F)F)on2)cc1	5	5	-0.9	0.4	5	-2	-2.9	i	-1.2	0.64
O=C(c1ccc2c3c(cccc13)CC2)C1CCCN(C(=O)c2ccc[n+]([O-])c2)C1 (centres undefined)	-2	-13	-2.9	-110	2	3	-0.4	i	0.1	0.69
CCC(c1nc2ccccc2c(=O)n1CCN1CCOCC1)N1C(=O)c2ccccc2C1=O (centres undefined)	·	·	·	1.3	2	-4	·	·	0.5	0.68
CCOc1ccc(S(=O)(=O)N/N=C\c2ccc3c(c2)OCO3)cc1	-1	1	-1.4	·	-2	-22	-4.1	i	-0.7	·
CCN(CC)c1ccc(S(=O)(=O)N2CCOCC2)cc1NC(=O)CSc1n[nH]c(N)n1	4	2	-3.1	-2.4	-4	12	6.6	i	0.1	0.67
O=C(CC1C(=O)NCCN1C(=O)Nc1ccc(C(F)(F)F)cc1)Nc1ccc(F)cc1 (centres undefined)	·	·	·	1.5	·	7	1.7	i	-0.1	0.65
Cc1c(NP(=O)(c2ccc(Br)cc2)c2ccc(Br)cc2)c(=O)n(-c2ccccc2)n1C	-23	-29	3.9	1.1	·	17	3.8	i	-0.8	0.68
Cc1nnc(SCc2nnc(-c3cccs3)o2)n1Cc1ccccc1	13	12	3.3	1.9	3	0	0.0	·	-0.3	0.7
c1ccc(N2CCN(c3nc4ccccc4[nH]3)CC2)nc1	3	0	-0.9	-0.9	5	-1	-1.1	i	-0.6	0.64
NS(=O)(=O)c1ccc(NC(=S)NCc2ccc3c(c2)OCO3)cc1	-2	3	1.7	-0.4	-2	5	-0.5	i	-0.3	0.68
O=C(COc1ccccc1)NCC(=O)N1CCCC1	5	0	-0.6	1.5	-3	3	-2.4	i	0.7	0.67
CCc1c(O)nc(SCc2ccc(F)cc2)[nH]c1=O	-2	3	-3.3	2.7	0	-13	-7.4	i	1.2	0.67
COc1cc(C(=O)OCC(=O)N2CCCCC2C)cc(NC(=O)c2cccs2)c1OC (centres undefined)	-4	-12	-0.4	-0.5	7	13	0.9	i	-0.6	0.73
O=C(O)/C=C/C(=O)Nc1ccccc1-c1ccccc1	·	·	·	1.1	-4	-14	·	·	-0.5	0.7
COc1cc(OC)c(NC(=O)Nc2ccc(OC)c(OC)c2)cc1Cl	·	·	·	-0.8	-3	-3	·	·	0.5	0.72
Cc1cc2nc3n(c2cc1C)CC1CC(C(=O)NCCc2cccs2)N(C)C31 (centres undefined)	0	16	-4.1	1.0	0	4	0.3	i	-0.6	0.7
COc1ccc(-c2csc3ncnc(N4CCN(S(=O)(=O)c5ccc(Cl)s5)CC4)c23)cc1	3	4	3.6	1.2	9	47	-0.4	i	-0.2	0.63
COc1ccc(C(C(=O)NC2CCCC2)N(C(=O)c2ccoc2C)c2cc(C)cc(C)c2)cc1 (centres undefined)	4	5	0.2	2.0	3	11	1.6	i	-0.4	0.67
CC(C)CNC(=O)Nc1ccc(F)c(Cl)c1	-27	-38	-3.8	4.3	-1	-17	-3.2	i	-1.6	0.64

Looked up one by one from the list above:
SMILES	rRNA inh HTS	rRNA inh HTS OD600	rRNA inh HTS RFP	UCH37 DUB inh	Beta apoptosis	T cruzi inh	MLL AF4-AF9 inh	FGF22 binding	A1 inh	E coli growth
Cc1cc2nc3n(c2cc1C)CC1CC(C(=O)NCCc2cccs2)N(C)C31 (centres undefined)	0	16	-4.1	1.0	0	4	0.3	i	-0.6	0.7
CC(C)CNC(=O)Nc1ccc(F)c(Cl)c1	-27	-38	-3.8	4.3	-1	-17	-3.2	i	-1.6	0.64

The listing picks up, repeating the two entries before the break.
SMILES	rRNA inh HTS	rRNA inh HTS OD600	rRNA inh HTS RFP	UCH37 DUB inh	Beta apoptosis	T cruzi inh	MLL AF4-AF9 inh	FGF22 binding	A1 inh	E coli growth
COc1ccc(C(C(=O)NC2CCCC2)N(C(=O)c2ccoc2C)c2cc(C)cc(C)c2)cc1 (centres undefined)	4	5	0.2	2.0	3	11	1.6	i	-0.4	0.67
CC(C)CNC(=O)Nc1ccc(F)c(Cl)c1	-27	-38	-3.8	4.3	-1	-17	-3.2	i	-1.6	0.64
CCCCN(C(=O)CSCc1ccc(C)cc1)c1c(N)n(CCC)c(=O)[nH]c1=O	3	9	1.5	1.3	-1	-13	-3.5	i	0.4	0.68
COc1ccc(NC(=O)CN2C(=O)NC3(CCCc4ccccc43)C2=O)c(OC)c1 (centres undefined)	-5	-11	2.0	0.7	-19	·	1.4	i	1.9	0.67
Cc1ccc(-c2sc(-c3cccnc3)nc2CC(=O)O)cc1	-4	0	-9.4	-6.0	-3	-12	-9.8	i	-0.3	0.74
CC(NC(=S)N1CCN(c2ccccc2)CC1)c1ccccc1 (centres undefined)	9	8	-3.5	1.0	2	-17	-12	i	-0.5	0.72
CCN1CCCC1CNC(=O)c1cc(S(=O)(=O)CC)c(N)cc1OC (centres undefined)	·	·	·	2.2	·	-16	·	·	0.6	0.69
COc1ccccc1NC1CCCCC1NS(=O)(=O)c1ccc(C)cc1 (centres undefined)	0	0	0.5	1.5	·	18	5.4	i	·	0.68
CC(C)OCCCNC(=O)c1ccc(NC(=O)C2CCCO2)cc1 (centres undefined)	·	·	·	0.8	6	-6	·	·	-0.3	0.68
COc1ccc(NC(=O)CSc2nnc(Cn3c(=O)sc4ccccc43)n2C)c(OC)c1	-3	-3	0.6	5.1	-3	6	-1.5	i	-0.6	0.72
Cc1nc2ccccn2c1C(=O)NC1CCCCC1	·	·	·	1.9	0	-15	·	·	-0.3	0.7
O=C(/C=C/c1ccco1)Oc1cccc2cccnc12	6	-4	0.1	9.2	·	-29	-0.2	i	1.3	0.7
O=C(COc1ccc(Cl)cc1Cl)Nc1ccc(CN2CCOCC2)cc1	-2	0	1.8	5.4	-1	0	0.2	i	0.1	0.72
CCN(CC)S(=O)(=O)c1ccc(N2CCOCC2)c(NS(=O)(=O)c2ccc(C(C)C)cc2)c1	8	4	-0.6	3.0	5	7	0.2	i	1.5	0.7
COc1ccc(-c2noc(COc3ccc4ccccc4c3Br)n2)cc1OC	·	·	·	-0.5	-8	1	·	·	0.1	0.76
CCOC(=O)c1sc(NC(=O)Nc2ccccc2F)nc1C	·	·	·	5.6	6	-2	·	·	-8.5	0.7
Cc1[nH]n2c(=O)cc(C(C)(C)C)nc2c1-c1ccccc1	·	·	·	-6.4	52	59*	·	·	0.1	0.73
COc1ccc(-c2cccc(NS(=O)(=O)c3cc([N+](=O)[O-])ccc3C)c2)nn1	7	-4	0.0	4.9	-7	12	-1.4	i	1.1	0.68
O=C(Cn1cnc([N+](=O)[O-])n1)N/N=C/c1cccc2ccccc12	10	3	-3.0	·	2	52	-0.8	i	-0.6	·
Cc1ccc(C(O)Cn2cc([N+](=O)[O-])nc2C)cc1 (centres undefined)	-1	-1	0.6	4.6	-7	-5	-0.9	i	-0.7	0.68
CCN1/C(=C\c2ccc3ccccc3[n+]2CC)Sc2cc(C)ccc21	51	-58	66	4.9	106*	49	14	i	1.0	·
O=C(c1cccc([N+](=O)[O-])c1)N(c1ccccn1)c1ccccn1	·	·	·	0.4	-2	-11	·	·	1.0	0.67
CC(C)NC(=O)c1ccc(NC(=O)CC2SC(N3CCCCC3)=NC2=O)cc1 (centres undefined)	12	17	2.3	1.1	-3	·	-5.3	i	-0.2	0.64
COc1ccc(-c2ocnc2C(=O)N2CCN(C(c3ccccc3)c3ccccc3)CC2)cc1	-2	-2	-1.0	0.4	-4	41	3.8	i	0.4	0.72
COC(=O)Cc1cc(=O)n2[nH]c(C)c(-c3ccccc3)c2n1	·	·	·	-5.6	-1	0	·	·	-0.2	0.72
CCCCNC(=O)CSc1nc2cc3c(cc2c(=O)n1CCCC(=O)NCCc1ccc(OC)c(OC)c1)OCO3	2	2	1.1	3.6	-1	23	0.9	i	0.4	0.67
COc1ccccc1NC(=O)C(=O)Nc1ccc2c(c1)N(C(=O)C1CC1)CCC2	2	9	-1.1	-9.5	·	-1	-34	i	·	0.64
Cc1cc(F)ccc1NCc1ccncc1	·	·	·	3.4	-6	-12	·	·	-0.7	0.66
CC(C)C(NS(=O)(=O)c1cccc2nsnc12)C(=O)NCc1ccc2c(c1)OCO2 (centres undefined)	2	-3	1.1	3.1	-1	-1	4.2	i	-0.2	0.73
O=C(NCCCN1CCCC1)c1ccc2c(Cl)c3c(nc2c1)CCCC3	-2	-4	3.3	9.2	-1	48	3.9	i	-0.1	0.66
